ClpP mod: qHTS Assay for Activators of ClpP; ATP-dependent Clp protease proteolytic subunit (Bacillus subtilis (strain 168)), P80244; purified B. subtilis ClpP, FRET peptide cleavage, 20 min; Potency, µM (top dose mostly 57.5 µM), for inactives: top-dose activity change, negative = active; hit rate 1.9% among 340,000; AID 651965, 2013; active = well fitted falling curve with a large enough effect; inconclusive = small, poorly fitted or top-dose-only effect; inactive = no such curve, though single readings can be large or run the other way; note: potency is the fitted concentration of half-maximal effect; the source files actives as falling curves though it sought activators and does not explain the sign; nearly all actives have a fitted effect of over 65% in size; many hits overshoot -100%
Target sequence (P80244 whole entry, looked up): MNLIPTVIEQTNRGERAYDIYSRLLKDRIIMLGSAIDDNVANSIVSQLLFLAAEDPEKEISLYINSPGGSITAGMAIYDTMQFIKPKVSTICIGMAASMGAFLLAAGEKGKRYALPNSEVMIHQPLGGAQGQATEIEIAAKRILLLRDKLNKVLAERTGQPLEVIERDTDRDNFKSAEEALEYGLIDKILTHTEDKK
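Purified B. subtilis ClpP, 10 microg/mL final in Tris/HCl pH8 with KCl, BSA, glycerol and Tween-20, cleaved an Abz/nitrotyrosine-quenched decapeptide. Fluorescence (ex 320, em 430) was read at 0 and 20 min at room temperature. Delta was normalized to 5.8 microM ADEP and DMSO/no-enzyme controls.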
gsp antagonist: qHTS for Antagonists of gsp, the Etiologic Mutation Responsible for Fibrous Dysplasia/McCune-Albright Syndrome: qHTS | hit rate 0.4% among 340,000 | gsp-mutant cells, cAMP HTRF, 30 min; control for the full effect not named in the record | Potency, µM (top dose mostly 76.9 µM), inactives show at the top dose activity change, negative = inhibition, usual class: inhibitors; active = falling curve of any shape with a large fitted effect; inconclusive = falling curve, mostly with a smaller effect; inactive = flat or rising curve; cell line not stated here;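 note: intracellular cAMP measured with PDE inhibitor Ro 20-1724 present during compound exposure; potency is the fitted concentration of half-maximal effect; % is set by controls: 0 for no effect and ±100 for the full control effect; nearly all actives have a fitted effect of over 65% in size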
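HTRF cAMP read-out (cAMP-d2 plus anti-cAMP antibody-K in lysis buffer, 30 min RT). Before lysis, cells are exposed to compounds with […] for 30 min at 37C in DPBS containing Ca/Mg, BSA and Tween 20.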
Sfp PPTase inh: qHTS Assay for Inhibitors of Bacillus subtilis Sfp phosphopantetheinyl transferase (PPTase); hit rate 3.5% among 310,000; 4'-phosphopantetheinyl transferase ffp (Bacillus subtilis), Q9F4F7; Potency, µM, for the others: max response, negative = inhibition, hits mostly inhibitors; Biochemical Sfp PPTase activity, qHTS; AID 1490, 2009; active = well fitted inhibition curve with a large enough effect; inconclusive = small, poorly fitted or top-dose-only effect, or another doubt; inactive = no such curve, though single readings can be large or run the other way;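 note: the enzyme is Sfp with the accession as filed and its product quenches rhodamine fluorescence; potency is the fitted concentration of half-maximal effect; 0% = enzyme reaction without inhibitor and -100% = no enzyme wells; top concentration of the series not given in the record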
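Compounds were incubated with enzyme (final 15 nM) for 15 min at room temperature before substrate addition started the reaction. Fluorescence at 525 nm excitation, 598 nm emission was recorded immediately and after 30 minutes.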
TRPML1 blocker: qHTS for Inhibitors of the Human Mucolipin Transient Receptor Potential 1 (TRPML1). Mucolipin-1 (Homo sapiens), Q9GZU1. TRPML1-inducible cells, Ca2+ dye fluorescence, FDSS; active compounds read low; inhibition of EC80 agonist-evoked calcium signal. activity change, negative = inhibition, % (concentration not given with the values). hit rate 0.02% among 390,000; in the data active means activity change below about -50%; inconclusive means about -30% to -50%; inactive means above about -30%;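 note: stimulus is agonist 54-4 at its EC80 concentration; % is set by controls: 0 for no effect and ±100 for the full control effect; the text of the record puts the active cut at -80%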
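TRPML1-DL cells, Tet-induced overnight (~16 h, 37 °C) at 1,500 cells/well, were loaded with Ca8 no-wash dye plus quencher for 45-90 min at room temperature. Compounds were pinned during FDSS kinetic reading; agonist 54-4 at EC80 (4 uM final) then added.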
TRPV1 potentiator: HTS Assay for Compounds that Act as Potentiators of the Vanilloid Receptor 1; Transient receptor potential cation channel subfamily V member 1 (Homo sapiens), Q8NER1; TRPV1-expressing cells, Fluo-8 calcium influx, capsaicin EC20 potentiation; host cell line not named in the record; control for the full effect not named in the record; potentiation, % at 8.33 µM; hit rate 0.02% among 320,000; active means potentiation above 80%; inconclusive means 30% to 80%; inactive means below 30%; note: 0% is about no effect
Target sequence (Q8NER1 whole entry, looked up): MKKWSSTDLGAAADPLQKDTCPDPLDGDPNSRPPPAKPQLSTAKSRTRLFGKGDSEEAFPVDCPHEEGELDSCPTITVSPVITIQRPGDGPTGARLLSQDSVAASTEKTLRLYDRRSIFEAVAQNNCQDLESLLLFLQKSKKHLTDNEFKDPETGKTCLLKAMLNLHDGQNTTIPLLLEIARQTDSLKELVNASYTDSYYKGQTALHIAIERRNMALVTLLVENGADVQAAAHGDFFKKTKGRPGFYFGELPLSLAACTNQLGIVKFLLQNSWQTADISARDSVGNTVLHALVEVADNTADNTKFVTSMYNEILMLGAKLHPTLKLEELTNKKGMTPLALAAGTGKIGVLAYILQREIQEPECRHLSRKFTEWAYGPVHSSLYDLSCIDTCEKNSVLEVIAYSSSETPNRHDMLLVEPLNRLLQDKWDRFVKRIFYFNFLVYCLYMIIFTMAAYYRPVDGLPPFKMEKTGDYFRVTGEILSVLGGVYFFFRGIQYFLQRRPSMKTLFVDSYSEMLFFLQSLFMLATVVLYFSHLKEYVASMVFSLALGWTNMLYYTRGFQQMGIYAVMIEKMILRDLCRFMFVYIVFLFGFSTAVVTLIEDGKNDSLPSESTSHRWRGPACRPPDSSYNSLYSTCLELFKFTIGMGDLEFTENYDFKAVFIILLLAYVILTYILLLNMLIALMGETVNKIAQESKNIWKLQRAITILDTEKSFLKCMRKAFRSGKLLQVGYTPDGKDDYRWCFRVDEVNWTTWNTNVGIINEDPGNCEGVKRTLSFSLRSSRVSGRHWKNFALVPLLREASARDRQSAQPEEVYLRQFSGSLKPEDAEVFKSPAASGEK
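TRPV1-expressing cells were cultured overnight at 35.5C and loaded with Fluo-8 calcium dye for 40 to 90 min at room temperature. After a 10 s baseline, compound was added and calcium influx was read kinetically for 3 min (ex 480/em 520 nm).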
Menin MLL FP FL: qHTS Assay for Inhibitors Targeting the Menin-MLL Interaction in MLL Related Leukemias: Competition With Fluorescein Labeled MLL-derived Peptide. 290,000 tested, under 10 active. Fluorescence polarization, fluorescein-MLL peptide displacement from menin. FP activity change, % at 61.4 µM; inconclusive = falling polarisation curve, or a change in total fluorescence; inactive = total fluorescence flat and polarisation flat or rising; no compound was filed as active; the % refers to the polarisation; negative = inhibition;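 note: % of control where 0% means no effect; inhibitors lower the polarisation; unlabelled MLL peptide was the positive control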
gsp ag: qHTS for Agonist of gsp, the Etiologic Mutation Responsible for Fibrous Dysplasia/McCune-Albright Syndrome: qHTS | hit rate 0.13% among 340,000 | gsp mutant cells, cAMP HTRF, 30 min; control for the full effect not named in the record | AID 624287, 2012 | Potency, µM (titrated, usually from 76.9 µM), without a hit: top-dose activation (cAMP increase), most hits filed as activators; active = well fitted activation curve with a large enough effect; inconclusive = small, poorly fitted or top-dose-only effect, or another doubt; inactive = no such curve, though single readings can be large or run the other way; cell line not stated here;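 note: phosphodiesterase inhibitor Ro 20-1724 added with compounds to block cAMP breakdown; potency is the fitted concentration of half-maximal effect; nearly all actives have a fitted effect of over 60% in size; about a fifth of the inactives were tested at one dose only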
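Cells stably selected in G418 were plated at 2000/well, grown 16-24 hr, then given compounds in DMSO with the PDE inhibitor […] (300 uM solution added) for 30 min at 37C; cAMP was read by HTRF.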
* = called active by the depositor; ? = inconclusive; . = no result given; & = joins results of further samples; [ ] = remark or other dose.

SMILES | ClpP mod | gsp antagonist | Sfp PPTase inh | TRPML1 blocker | TRPV1 potentiator | Menin MLL FP FL | gsp ag
COc1ccc(-n2c(Cc3cccc([N+](=O)[O-])c3)nc3ccccc3c2=O)cc1 | -2.4% | 11.0% | 0.9% | -20.3 | 5.3 | 2.4 | -19.8%
COC1=C[C@@H]2[C@@H]3Cc4ccc(OC)c(O)c4[C@]2(CCN3C)CC1=O | -1.8% | -7.6% | 10.1% | 17.8 | . | 0.1 | .
O=c1[nH]c(CN2CC=C(c3ccccc3)CC2)nc2scc(-c3cccs3)c12 | -5.3% | -4.3% | -13.7% | 1.2 | -11.8 | 11.1 | ?
Cc1ccc(C)c(CN2CCC(n3nnc4cc(F)ccc43)CC2)c1 | -3.4% | 3.7% | ? | 38.0 | -3.7 | -1.0 | -25.6%
O=c1[nH]c(=O)n(-c2cccc3ccccc23)c(O)c1C=NCc1ccc2c(c1)OCO2 | 0.0% | 2.8% | 5.1% | -1.5 | 22.4 | -0.8 | -0.1%
CCCCCn1c(=O)c(C(=O)Nc2ccccn2)c(O)c2ccccc21 | -5.5% | -6.4% | 1.8% | . | 0.2 | -4.9 | -1.9%
COC(=O)C(O)(c1c[nH]c2ccccc12)C(F)(F)F (stereo not given) | -1.0% | 1.0% | 6.9% | 0.0 | . | 1.2 | 8.1%
Cc1ccccc1-n1c(O)c(/C=C2/C(c3ccccc3)=Nc3ccccc32)c(=O)[nH]c1=O | -29.9% | -5.0% | -17.1% | 21.0 | 12.3 | 35.4[activator] | -42.9%[inhibitor]
O=C(NCC1=C(c2cccc3ccccc23)C[C@@H]2CC[C@H]1N2Cc1ccco1)c1ccc([N+](=O)[O-])cc1 | -0.6% | . | . | -2.0 | . | . | 19.6%
CN(CCc1ccccc1)Cc1ccccc1[N+](=O)[O-] | 0.1% | 0.9% | 15.6% | -2.2 | -2.9 | 3.3 | 18.1%

Three structures from above, arranged by molecular weight, rising.
SMILES | ClpP mod | gsp antagonist | Sfp PPTase inh | TRPML1 blocker | TRPV1 potentiator | Menin MLL FP FL | gsp ag
COC(=O)C(O)(c1c[nH]c2ccccc12)C(F)(F)F (stereo not given) | -1.0% | 1.0% | 6.9% | 0.0 | . | 1.2 | 8.1%
CCCCCn1c(=O)c(C(=O)Nc2ccccn2)c(O)c2ccccc21 | -5.5% | -6.4% | 1.8% | . | 0.2 | -4.9 | -1.9%
O=C(NCC1=C(c2cccc3ccccc23)C[C@@H]2CC[C@H]1N2Cc1ccco1)c1ccc([N+](=O)[O-])cc1 | -0.6% | . | . | -2.0 | . | . | 19.6%

Returning to the listing, starting 2 compounds before the break.
SMILES | ClpP mod | gsp antagonist | Sfp PPTase inh | TRPML1 blocker | TRPV1 potentiator | Menin MLL FP FL | gsp ag
O=C(NCC1=C(c2cccc3ccccc23)C[C@@H]2CC[C@H]1N2Cc1ccco1)c1ccc([N+](=O)[O-])cc1 | -0.6% | . | . | -2.0 | . | . | 19.6%
CN(CCc1ccccc1)Cc1ccccc1[N+](=O)[O-] | 0.1% | 0.9% | 15.6% | -2.2 | -2.9 | 3.3 | 18.1%
COc1ccccc1OCCCn1cc(C(=O)c2ccco2)c2ccccc21 | -4.2% | ? | -1.4% | 16.8 | -8.4 | -0.8 | 8.6%
COc1ccc(CCC(=O)N2C[C@H]3C[C@@H](C2)c2cccc(=O)n2C3)cc1 | -6.5% | -2.4% | 11.8% | . | 0.7 | 3.4 | .
COC(=O)C1=C(c2ccc(OC)c(OC)c2)C[C@@H]2CC[C@H]1N2C(=O)NCCO | 0.0% | 1.3% | . | 31.1 | 1.2 | . | .
CC(=O)OC1C=CC2[C@H]3Cc4ccc(O)c5c4[C@@]2(CCN3C)C1O5 (stereo not given in full) | 0.7% | -0.8% | . | -3.2 | . | . | .
Clc1ccc(C2NCCc3[nH]cnc32)cc1 (stereo not given) | 0.3% | -2.6% | -6.9% | 41.0 | 16.0 | 1.6 | 2.2%
c1ccc(P(c2ccccc2)c2ccccn2)cc1 | -0.8% | -13.5% | 1.8% | -7.2 | -2.6 | 0.8 | 4.7%[15.4 µM]
Fc1cccc(C2NCc3ccccc3-n3cccc32)c1 (stereo not given) | . | 7.6% | 5.8% | -9.5 | -0.2 | -2.5 | 7.8%
COCCNC(=O)c1c(NC(=O)c2ccco2)n(Cc2ccccc2)c2nc3ccccc3nc12 | 25.1µM* | -12.3% | 22.4µM* | 38.0 | 23.6 | 8.0 | ?
CCn1cc(C=C2C(=O)N(C)C(=O)N(C)C2=O)c2ccccc21 | . | 0.9% | 7.3% | 11.5 | -14.7 | ? | -66.0%[inhibitor]
Cn1c(=O)cc(SCC(=O)N2CCC3(CC2)OCCO3)c2ccc(Cl)cc21 | ? | -14.9% | 11.2% | 36.3 | 13.2 | 5.3 | ?
CC(=O)c1c(O)n(C2CCCCCC2)c(=O)[nH]c1=O | -3.6% | -25.8% | 6.2% | -5.8 | -13.3 | 11.8 | 0.8%
CC(=O)N(C1=NCCCS1)c1ccccc1F | 0.8% | 10.9% | 13.4% | -0.1 | 1.5 | 2.3 | -26.3%
Nc1ccccc1C(=O)OCC(=O)c1ccc2c(c1)OCCO2 | -4.8% | ? | -1.5% | -12.2 | 5.1 | -2.0 | -0.4%
O=c1c2ccccc2nc(-c2ccccc2)n1-n1cccc1 | -0.3% | -10.3% | 11.0% | -8.0 | 5.0 | 1.5 | -20.1%
COc1ccc(-n2c(O)c(C(C)=NCC3CCCO3)c(=O)[nH]c2=O)cc1 (stereo not given) | 0.0% | -9.3% | -1.1% | 42.3 | 5.1 | 0.1 | 11.3%[15.4 µM]
O=C(CN1CC=C(c2ccccc2)CC1)NC(=O)NC1CCCCC1 | . | 5.8% | 6.0% | -1.7 | -9.6 | 2.4 | ?
O=P(Oc1ccccc1)(N1CCOCC1)N1CCOCC1 | . | 0.6% | . | -8.6 | . | . | ?
CC(=O)N1CC(=O)Nc2ccc(Cl)cc2C1c1ccc(F)cc1 (stereo not given) | -2.4% | -11.0% | -4.2% | 8.6 | . | 2.1 | -32.1%[inhibitor]
O=c1c2ccccc2nc(/C=C/c2ccc(O)cc2)n1-c1cccc(O)c1 | . | ? | -18.2% | 7.6 | -16.1 | ? | 30.4%
CC1(CCO)C(=O)NC(=S)NC1=O | -0.7% | 13.7% | . | -2.6 | . | . | -10.6%
C#C[C@]1(O)CCC2C3C(CC[C@@]21C)[C@@]1(C)CC[C@@H](O)CC1=C[C@H]3O (stereo not given in full) | 0.1% | 11.6% | . | 7.0 | . | . | 7.5%[15.4 µM]
CN(C)CCSC1c2ccccc2CSc2ccccc21 (stereo not given) | -1.8% | 13.9% | . | 11.7 | . | . | -36.3%[inhibitor]
Cc1cccc(C)c1Oc1nc(-c2ccccc2)ncc1S(=O)(=O)c1ccccc1 | -3.9% | -5.9% | 17.0% | -18.3 | 9.9 | 3.3 | -40.3%[inhibitor]
CC(Cc1ccccc1)[n+]1cc(/N=C(\N)[O-])on1 (stereo not given) | -1.5% | 1.5% | 9.1% | -5.5 | -3.9 | 6.4 | 12.4%
O=C(O)C(O)(c1ccccc1)C1CCCC1 (stereo not given) | 1.2% | -10.4% | 7.7% | -8.3 | -5.7 | 3.3 | 0.0%
Cc1cccn2c(=O)c3c(nc12)N1CCCCC1C1(C3)C(=O)N(C)C(=O)N(C)C1=O (stereo not given) | . | -3.7% | 7.7% | -12.5 | 0.6 | 6.5 | 3.6%
COc1cc(C=C2C(=O)NC(=O)NC2=O)ccc1O | 0.1% | 5.3% | ? | 0.0 | ? | ? | -0.3%
Cc1ccc(N2C(=O)NC(=O)/C(=C\c3ccc([N+](=O)[O-])o3)C2=O)cc1 | . | . | ? | . | 1.1 | ? | .
COC(=O)C1=C(c2ccccc2)C[C@@H]2CC[C@H]1N2C(=O)N1CCC(C)CC1 | 0.3% | -2.4% | . | 1.5 | . | . | .
COC(=O)C1=C(c2ccc(OC(F)(F)F)cc2)C[C@@H]2CC[C@H]1N2C(=O)N1CCCC1 | -0.9% | 1.7% | . | -6.5 | -17.3 | . | -22.3%
O=C(CCCc1ccc(N(CCCl)CCCl)cc1)NCc1ccccc1 | -0.8% | . | . | 3.3 | . | . | ?
O=C(O)CC[N+](=O)[O-] | 2.4% | -6.0% | -8.8% | 1.2 | . | 6.2&-5.1 | .
O=S(=O)(c1ccc(F)cc1)N1CCCCC1c1cccnc1 (stereo not given) | -1.0% | 8.4% | 25.1% | 22.3 | -5.5 | 6.2 | -0.6%
O=C(O)c1cn(Cc2ccccc2)nc1-c1ccccc1 | . | -7.7% | 10.6% | 14.0 | 5.2 | -3.7 | ?
CC1=C2C(=O)C3C(CC=C4CC(OC5OC(O)C(O)C(O)C5CO)CCC43C)C2CCC12OC1CC(C)CNC1C2C (stereo not given) | . | 12.2% | 9.1% | -12.5 | -14.6 | -3.3 | -7.7%[15.4 µM]
COc1ccccc1OCC#CCN1CCCCCC1 | 2.7% | -6.8% | -19.4% | 9.5 | 8.8 | 4.9 | -2.8%
CC(=O)NCC1=C(c2cccc3ccccc23)C[C@@H]2CC[C@H]1N2Cc1ccco1 | -1.3% | . | . | 21.6 | . | . | -11.9%
O=C(CCN1CC2CCC(CC2)C1)c1cccs1 | 0.7% | 5.4% | . | 4.5 | . | . | -17.4%
c1ccc(CNC2CN3CCC2CC3)cc1 (stereo not given) | . | 2.2% | . | -11.2 | . | . | 6.7%
COc1ccc(S(=O)(=O)N2CC3CC(C2)c2cccc(=O)n2C3)cc1 (stereo not given) | . | 7.5% | 13.4% | -6.5 | -2.6 | 2.9 | 6.2%[15.4 µM]

Screening results from PubChem.

A portion of the library; rates above refer to the full screens.
